GLA inh pH 4.5: inhibitors of human alpha-galactosidase A at pH 4.5; P06280; purified enzyme, 4-MU-alpha-Gal fluorescence, pH 4.5; activity change, negative = inhibition, % at 105 µM; 230,000 tested, under 10 active; inconclusive = small, poorly fitted or top-dose-only inhibition, or a rising curve; inactive = flat fitted curve, though single readings scatter; no compound was filed as active;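 also: 0% = full activity with enzyme and -100% = basal without enzyme; dose as in the result columns while the protocol names 77 µM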
Target sequence (P06280 whole entry, looked up): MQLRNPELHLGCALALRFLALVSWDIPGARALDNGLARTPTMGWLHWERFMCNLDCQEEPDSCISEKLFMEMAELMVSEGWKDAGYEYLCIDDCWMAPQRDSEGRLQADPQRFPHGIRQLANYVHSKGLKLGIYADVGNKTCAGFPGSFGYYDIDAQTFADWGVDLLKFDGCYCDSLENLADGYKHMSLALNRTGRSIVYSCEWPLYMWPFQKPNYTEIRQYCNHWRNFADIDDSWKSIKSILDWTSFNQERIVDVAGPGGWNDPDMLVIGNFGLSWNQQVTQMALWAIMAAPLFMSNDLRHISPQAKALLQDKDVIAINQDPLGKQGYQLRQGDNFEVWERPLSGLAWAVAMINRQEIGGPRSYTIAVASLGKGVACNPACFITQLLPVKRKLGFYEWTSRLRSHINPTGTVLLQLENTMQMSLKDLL
Rango-impB inh: Rango-importin beta binding inhibition | Potency, µM (top dose mostly 92.2 µM), for the others: at the highest dose inhibition of complex formation | actives 0.031% (n = 340,000) | Rango CFP/YFP FRET sensor + importin beta, 45 min; active = rising FRET ratio curve, often small or poorly fitted; inconclusive = mostly compound fluorescence or quenching in the first reads; inactive = flat curves in all reads;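 also: potency is read from the fitted curve at half-maximal effect; 0% = DMSO wells and 100% = buffer wells lacking importin beta; nearly all actives have a fitted effect of over 15% in size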
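FRET biosensor (snurportin 1 IBB flanked by EYFP and cerulean), 50 nM, with compound 5 min, then 0.125 microM importin beta in PBS, 1 mM DTT, 0.02% Tween-20, 0.1% BSA. CFP/YFP ratio read after 45 min at room temperature; pre-read flags interference.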
miR-21 FLuc: miR-21 reporter, rising signal; HeLa miR-21 FLuc reporter, luciferase, 48 h; 340,000 tested, under 10 active; Potency, µM (highest dose often 38.3 µM), for the others: at the top dose reporter change, positive = more light; active = well fitted rising curve with a large enough effect; inconclusive = small, poorly fitted or top-dose-only effect; inactive = no such curve, though single readings can be large or run the other way;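 also: % of control where 0% means no effect; miR-21 action dims this reporter so a rising signal means less miR-21 action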
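Using DMEM plus 10% FBS, HeLa miR-21-FLuc cells are incubated with test compounds (final up to about 40uM) for 48 hours; firefly luciferase signal is then imaged following reagent-mediated lysis.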
Rango release inh: inhibitors of RanGTP-induced Rango-importin beta complex dissociation. actives 0.071% (n = 340,000). Biochemical FRET Rango-importin beta, RanGTP-induced dissociation. O95149+P62826. Potency, µM (titrated, usually from 46.1 µM), for the others: top-dose activity change, negative = inhibition; active means falling FRET ratio curve, often poorly fitted, with flat reads before Ran was added; inconclusive means other falling curves, or compound fluorescence or quenching; inactive means flat or rising ratio curve;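 also: potency is read from the fitted curve at half-maximal effect; % of control where 0% means no effect; nearly all actives have a fitted effect of over 45% in size; -100% = wells without RanGTP and RCC1; the record marks most hits as doubtful in a second field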
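Two FRET readings bracket the reaction: one 5 min after compound meets Rango–importin beta, another 45 min after RanGTP-RCC1 (0.6 uM Ran, 0.2 uM RCC1, 2 mM GTP) is added. Only the second defines inhibition.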
Starred values were filed as active, the others as inactive; ? = inconclusive; . = not tested or not shown. Some of the compounds tested; rates above refer to the full screens.

entry | SMILES | GLA inh pH 4.5 | Rango-impB inh | miR-21 FLuc | Rango release inh
1 | CN=C1S/C(=C\c2ccc(O)c(OC)c2)C(=O)N1C | . | ? | . | ?
2 | CC(=O)N1C(=O)N(C(C)=O)C2C1N(C)C(=O)N2C(C)=O (stereo not drawn) | 4 | -4.8% | 0% | -16%
3 | O=C(/C=C/c1ccc(F)cc1)NCC1(c2ccccc2)CCOCC1 | -6 | -1.0% | 0% | 9%
4 | COc1cccc(Oc2cnc(N)nc2-c2ccc(OC)cc2O)c1 | -2 | -3.8% | 19% | 16%
5 | COCCN(CC(=O)NC1CCCCC1)C(=O)/C=C/C(=O)c1ccc(OC)cc1O | 4 | 3.3% | 0% | 12%
6 | CCc1cccc(NC(=O)Nc2ccc3c(c2)OCO3)c1 | 2 | 0.1% | -24% | 3%
7 | COc1ccc(-c2ccnc(SCC(=O)c3ccc(OC)c(OC)c3)n2)cc1 | 9 | -4.9% | -9% | -10%
8 | COCCNS(=O)(=O)c1cc(F)ccc1OC | 0 | -0.6% | -3% | -3%
9 | CN1CCN(C(=O)c2ccc(COc3cc(Cl)ccc3Cl)o2)CC1 | . | 3.1% | -28% | 0%
10 | O=C(COc1ncnc2ccccc12)NCCc1ccc(F)cc1 | -6 | -1.3% | 3% | -2%
11 | COc1ccc(-c2c(C)nn3c(N4CCC5(CC4)OCCO5)cc(C)nc23)cc1OC | -6 | -3.7% | -6% | -1%
12 | O=C(CN(Cc1ccc(Br)cc1)S(=O)(=O)c1ccccc1)NCc1ccccn1 | . | -1.0% | 6% | 4%
13 | COC(=O)C1=C(C)Nc2[nH]c(=S)[nH]c(=O)c2C1c1ccc(OC)cc1 (stereo not drawn) | -24 | 2.5% | -2% | -9%
14 | COc1cc(OC)cc(-n2nnnc2SCC(=O)NCCc2ccc(OC)c(OC)c2)c1 | 5 | -2.4% | -12% | -1%
15 | Cc1ccc(C(=O)c2ccc(C)cc2)cc1 | 6 | -0.4% | -9% | 12%
16 | CN(c1ccc(S(=O)(=O)N2CCOCC2)cn1)C1CCCCC1 | -6 | -2.9% | -16% | -9%
17 | C=C(C)C1CC=C(C)/C(=N/NC(=O)COc2cccc3ccccc23)C1 (stereo not drawn) | -3 | 0.5% | -7% | 13%
18 | N#CC1=C(N)C(C#N)(C#N)C2(CCC3(CC2)OCCO3)C2CC3(CC=C12)OCCO3 (stereo not drawn) | -7 | 0.2% | -6% | 20%
19 | Cc1ccc(CN2C(=O)CSc3ccc(C(=O)NC4CC4)cc32)cc1 | . | 10% | 1% | 7%
20 | CCCC(=O)c1cc(F)c(N2CCN(S(=O)(=O)c3ccccc3)CC2)cc1C | -18 | 2.9% | -1% | 2%
21 | O=C(O)C1CCCCC1C(=O)NCCC(c1ccccc1)c1ccccc1 (stereo not drawn) | 3 | 5.2% | 0% | -6%
22 | CCN(CC)S(=O)(=O)c1ccc(/C=C/C(=O)OCC(=O)NNC(=O)c2ccc(OC)cc2)cc1 | . | -0.1% | . | ?
23 | Cc1ccc(-c2nc3ccccc3s2)cc1S(=O)(=O)N1CCOCC1 | -7 | ? | -4% | -2%
24 | Cc1cc2c(cc1C)CSC(c1c(O)ccc3ccccc13)SC2 | -3 | 0.6% | 1% | -9%
25 | Cc1cc(/C=C(\C#N)C(=O)NCc2ccccc2)cc(C)c1O | . | ? | -3% | 6.5µM*
26 | COC(=O)[C@@H](Cc1ccccc1)NC(=O)Cn1cc(C)c(=O)[nH]c1=O | . | 5.3% | . | 8%
27 | O=C(O)CCCCCn1c(SCc2cc(=O)n3ccccc3n2)nc2ccsc2c1=O | 3 | 2.0% | -19% | 12%
28 | CCC(=O)Nc1ccccc1C(=O)OC(c1ccccc1)c1ccccc1 | -6 | 0.9% | -12% | 1%
29 | COc1ccc(CCNC(=O)CN(C2CCCCC2)S(C)(=O)=O)cc1OC | -18 | 0.1% | -3% | 0%
30 | Cc1ccc2ccc(C3C(=O)c4ccccc4C3=O)nc2c1 | . | 1.0% | . | -9%

Records 1 through 4, reprinted for reference:
entry | SMILES | GLA inh pH 4.5 | Rango-impB inh | miR-21 FLuc | Rango release inh
1 | CN=C1S/C(=C\c2ccc(O)c(OC)c2)C(=O)N1C | . | ? | . | ?
2 | CC(=O)N1C(=O)N(C(C)=O)C2C1N(C)C(=O)N2C(C)=O (stereo not drawn) | 4 | -4.8% | 0% | -16%
3 | O=C(/C=C/c1ccc(F)cc1)NCC1(c2ccccc2)CCOCC1 | -6 | -1.0% | 0% | 9%
4 | COc1cccc(Oc2cnc(N)nc2-c2ccc(OC)cc2O)c1 | -2 | -3.8% | 19% | 16%

Some of the entries so far, as labelled records:
[29] COc1ccc(CCNC(=O)CN(C2CCCCC2)S(C)(=O)=O)cc1OC
  GLA inh pH 4.5: -18; Rango-impB inh: 0.1%; miR-21 FLuc: -3%; Rango release inh: 0%

[21] O=C(O)C1CCCCC1C(=O)NCCC(c1ccccc1)c1ccccc1 (stereo not drawn)
  GLA inh pH 4.5: 3; Rango-impB inh: 5.2%; miR-21 FLuc: 0%; Rango release inh: -6%

[15] Cc1ccc(C(=O)c2ccc(C)cc2)cc1
  GLA inh pH 4.5: 6; Rango-impB inh: -0.4%; miR-21 FLuc: -9%; Rango release inh: 12%

[2] CC(=O)N1C(=O)N(C(C)=O)C2C1N(C)C(=O)N2C(C)=O (stereo not drawn)
  GLA inh pH 4.5: 4; Rango-impB inh: -4.8%; miR-21 FLuc: 0%; Rango release inh: -16%

(cont.)
Values in the order: GLA inh pH 4.5, Rango-impB inh, miR-21 FLuc, Rango release inh
31	Cc1ccc(CNC(=O)C2CSC3(C)CCC(=O)N23)cc1 (stereo not drawn)
  ., -0.3%, ., -3%
32	CN(C)S(=O)(=O)c1ccc(C(=O)NCC[N+]2(C)CCCCCC2)o1
  ., -2.8%, 0%, -5%
33	O=C(CSc1nc2ccccc2o1)NCC1CCCO1 (stereo not drawn)
  ., 4.8%, ., -2%
34	COc1ccc(-c2nc(-c3ccccn3)no2)cc1
  5, -0.1%, ?, -6%
35	O=C(Nc1cccc(C(=O)N2CCOCC2)c1)C1CCCC1
  ., 4.3%, ., -8%
36	CC(C)C1NC(=S)N(C2CCCCC2)C1=O (stereo not drawn)
  0, 1.0%, -10%, -9%
37	CCN1CCN(C(=S)c2ccc(OCC(=O)N3CCOCC3)cc2)CC1
  -1, -0.5%, 2%, 1%
38	O=C(CSc1nc2ccccc2c(=O)[nH]1)N1CCOCC1
  -1, -6.8%, -4%, -12%
39	CC(C)(C)NC(=O)NC(=O)COc1ccccc1C#N
  -17, -0.6%, -42%, 0%
40	O=C(OCc1ccc(C(=O)c2ccccc2)cc1)c1cccc(-c2nnc(-c3ccccc3)o2)c1
  -2, 4.4%, -34%, 14%
41	Cc1ccc(CN2CCN(/N=C/c3ccc(C(=O)O)cc3)CC2)cc1
  10, -2.3%, 0%, -5%
42	CCOc1ccccc1C1C(C(N)=O)=C(C)Nc2nc(-c3ccc(OC)cc3)nn21 (stereo not drawn)
  -23, -0.5%, -1%, 30%
43	CCOC(=O)c1cc(-c2csc(-c3ccc(C(C)(C)C)cc3)n2)on1
  -5, -1.2%, -3%, -2%
44	COc1ccc(-c2cn(-c3ccc(C)cc3C)c(=O)[nH]2)cc1OC
  1, ?, 9%, -5%
45	COC(=O)c1ccccc1NC(=O)CSc1nc2c(c(=O)[nH]1)CCC2
  ., 2.8%, 1%, 1%
46	O=C(O)c1ccc(C(=O)Nc2cccc(NC(=O)C3CCCO3)c2)cc1 (stereo not drawn)
  -4, 6.9%, 1%, -1%
47	O=C(O)CCCC(=O)N1CCOCCOCCOCCOCC1
  ., 2.4%, 0%, -15%
48	O=C(COc1ccc2ccccc2c1)NC1=NCCS1
  3, 1.0%, -35%, 12%
49	COc1ccc(OC)c(S(=O)(=O)N2CCCC(C(=O)NCc3ccccn3)C2)c1 (stereo not drawn)
  ., -0.4%, 7%, 0%
50	CCC(c1nc2ccccc2c(=O)n1-c1nc2ccccc2s1)N1C(=O)c2ccccc2C1=O (stereo not drawn)
  -5, 1.1%, -6%, -9%
51	Cc1ccc(/C=C/C(=O)c2nc3ccccc3[nH]2)cc1
  10, 2.2%, -5%, -20%
52	N#CC1=C2SCN(Cc3ccco3)CN2C(=O)CC1c1ccc(Cl)cc1 (stereo not drawn)
  -1, -7.8%, 0%, 1%
53	Cc1ccc(OCCCC(=O)Nc2nnc(C3CCCO3)s2)c(C)c1 (stereo not drawn)
  2, -0.1%, -3%, -8%
54	Cc1cccc(NC(=O)CC(=O)Nc2cccc(C)c2)c1
  ., -3.6%, -10%, -13%
55	CCn1c(SCC(=O)Nc2nnc(C)s2)nnc1-c1ccncc1
  4, 1.4%, -3%, -3%
56	Cc1ccc(S(=O)(=O)N2CCN(S(C)(=O)=O)C2)cc1
  ?, 0.3%, 0%, -1%
57	CCN(CC(=O)Nc1cc(S(=O)(=O)N2CCCCC2)ccc1C)Cc1ccccc1
  ., 0.0%, ., -3%
58	S=C1COC(c2ccccc2)N1c1ccccc1 (stereo not drawn)
  -3, 3.1%, -6%, -8%
59	Cc1ccc(C)c(NC(=O)CN(C)C(=O)c2cc3ccccc3oc2=O)c1
  ., 0.6%, ., -2%
60	O=C(CSc1nc(-c2cccs2)cc(C(F)(F)F)n1)NCCCN1CCOCC1
  5, 0.1%, -3%, -2%
61	Cc1ccc(Oc2nc3c(c(=O)n(Cc4ccccc4F)c(=O)n3C)n2C)cc1
  5, -0.5%, -1%, 1%
62	COc1ccc(C(=O)c2sc(Nc3ccccc3)nc2C)cc1
  ., ?, -27%, -19%
63	CC(=O)Nc1cccc(C(=O)N2CCC(n3nccc3NC(=O)CC(C)C)CC2)c1
  ., 4.8%, 1%, 5%
64	CCc1oc(C(=O)OC)cc1CSC(=N)N
  3, ?, 1%, -17%
65	O=C(CN1C(=O)S/C(=C\c2ccc(F)cc2)C1=O)Nc1cccc(S(=O)(=O)NCc2ccco2)c1
  -1, -0.3%, 3%, 2%
66	CC(C)C(=O)Nc1ccc(C(=O)NCc2cccnc2)cc1
  -8, -2.7%, 17%, -5%
67	CCc1nnc(NS(=O)(=O)c2ccc(NC(=O)/C=C/C(=O)O)cc2)s1
  ., 0.4%, 1%, ?
68	CC(NC(=O)c1cc([N+](=O)[O-])cc([N+](=O)[O-])c1)c1ccc(-n2ccnc2)cc1 (stereo not drawn)
  ., -3.4%, 15%, 1%
69	CCCCCCCCCCCCN1[C@@H](CC(C)=O)c2cc(C(F)(F)F)ccc2S1(=O)=O
  ., -0.3%, ., -14%
70	C=CC1=C(C(=O)O)N2C(=O)[C@@H](NC(=O)/C(=N/OCC(=O)O)c3csc(N)n3)[C@H]2SC1
  ., -0.5%, ., -6%
71	Cc1nnsc1C(=O)NC(=O)Nc1ccc(F)c(Cl)c1
  0, 2.6%, -2%, 2%
72	Cc1ccc(-c2cc(-c3ccccc3Cl)[nH]n2)c(O)c1
  -3, 0.1%, -50%, -11%
73	CC1(C)SC2c3ccccc3C(=O)N2[C@@H]1C(=O)NC1CCCC1 (stereo partly drawn)
  ., 1.7%, -3%, 20%
74	CN(C)c1ccc(P(=O)(OC2CCCCC2)C(Nc2ccccc2)c2cccnc2)cc1 (stereo not drawn)
  -3, -2.6%, 0%, 0%
75	O=C(OCC(=O)N1CCCc2ccccc21)c1ccccc1NCCO
  ., -1.4%, ., 1%
76	N/C(=N\OS(=O)(=O)c1ccccc1)c1ccccn1
  0, -0.3%, -4%, 11%
